Bfl-1 A1 inh: caspase 3/7 activation in MEF A1-2A-BIM cells, primary screen, A1 inhibitor project, cell-based, luminescence, HTS; Caspase-Glo 3/7 luminescence, 3 h; percent of clofoctol response, vehicle zero; caspase activation, % (test concentration not listed); 330,000 compounds, 0.066% hits; AID 2462, 2010;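 active means over half of replicate activation scores above 10%, or exactly half above 10 with the replicate mean above 10; inconclusive means replicate mean below 10 yet half the replicates above 10; inactive means over half of replicates below 10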;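 further: wells of about 30 µL received 50 nL stock; many hits fall short of the cut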
Beta apoptosis: inhibitors of cytokine-induced beta cell apoptosis, primary screen, luminescence; INS-1E cytokine-induced death, ATP luminescence, 48 h; percent of positive-control rescue, neutral wells zero; protection from apoptosis, % (concentration not given with the values); 300,000 compounds, 0.8% hits; AID 435005, 2010;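 active means all replicates at 75% or more, or half of them and the mean; inconclusive means half reach 75% but not the mean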;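 further: 0% = cytokine-treated negative control wells and 100% = positive control rescue; higher means more ATP so stronger rescue from cytokine killing; wells of about 40 µL received 100 nL stock; the first replicate is given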
B2AR ag: beta2AR agonists driving receptor internalization, primary screen, cell-based, FAP fluorogen, flow cytometry; Beta-2 adrenergic receptor (Homo sapiens), P07550; Am2.2-beta2AR cells; reference of the scale not given here; response, % (no concentration beside the values); 340,000 compounds, 0.43% hits; AID 504454, 2011;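 active means response above a set limit, near 3 SD of response in nonfluorescent compounds, cut at about 42% in these data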;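 further: stock transfer was 100 nL into about 11 µL; a reference agonist was the positive control; negative values mostly stem from fluorescent compounds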
Target sequence (P07550 whole entry, looked up): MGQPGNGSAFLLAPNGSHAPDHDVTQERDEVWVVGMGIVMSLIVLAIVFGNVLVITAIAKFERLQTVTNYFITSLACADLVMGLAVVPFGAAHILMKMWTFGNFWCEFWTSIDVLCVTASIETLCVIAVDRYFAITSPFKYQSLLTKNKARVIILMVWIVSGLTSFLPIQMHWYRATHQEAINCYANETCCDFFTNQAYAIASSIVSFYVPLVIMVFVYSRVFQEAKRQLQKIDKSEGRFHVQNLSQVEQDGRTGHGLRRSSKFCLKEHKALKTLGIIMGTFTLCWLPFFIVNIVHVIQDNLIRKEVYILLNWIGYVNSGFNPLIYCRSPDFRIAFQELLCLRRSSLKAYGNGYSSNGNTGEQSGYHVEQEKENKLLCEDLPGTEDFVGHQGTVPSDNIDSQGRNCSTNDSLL
T cruzi inh: inhibitors of intracellular T. cruzi growth, primary screen, luminescence, NIH3T3 host cells. T. cruzi beta-gal in NIH3T3, 90 h. inhibition, % (concentration not given with the values). 300,000 compounds, 1.4% hits;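 active means mean inhibition across valid replicates above about 55%, limit read from the data; inconclusive means mean below that limit but half or more replicates reach it; inactive means mean below it, under half of replicates reach it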;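 further: signal also drops with host cell toxicity which is not excluded here; 0% = plate median of DMSO wells and 100% = zero luminescence signal; higher percent means less beta-gal luminescence so fewer parasites; stock transfer was 50 nL into about 50 µL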
Ecoli rRNA inh: reduced GFP signal of wild-type E. coli, primary screen, bacterial rRNA inhibitor project, GFP/RFP fluorescence, OD600, single point; E. coli WT GFP vs humanized-ribosome RFP mutants, 24 h; stronger effect = lower value; DMSO median 0, no signal -100; GFP signal change (wild-type ribosome), % (concentration not given with the values); 350,000 compounds, 1.6% hits;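 active means significant combined selectivity score with lowered wild-type GFP, culture density cut under 30%, mutant RFP and density less affected; inactive means any of these conditions unmet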; further: one replicate is shown; some compounds called inactive have numbers as strong as hits
LANA-H2B inh: blockers of LANA interaction with H2A/H2B – biochemical, FP readout, HTS, primary screen. Protein LANA1 (Human herpesvirus 8 type P (isolate GK18)), Q9QR71. cell-free LANA-H2A/H2B peptide, fluorescence polarization. inhibition, % (no concentration beside the values). 320,000 compounds, 0.6% hits. AID 2629, 2010; in the data active means inhibition mostly above about 10%, no sharp cut-off; inactive means mostly below about 6.7%;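 further: stock transfer was 7.5 nL into about 10 µL; 0% = median of vehicle wells and 100% = median of positive control wells; one replicate is shown; the record names a cut of 25% in any replicate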
ALR H2O2 inh: inhibitors of human ALR sulfhydryl oxidase, primary screen, biochemical, H2O2 detection, HRP-luminol luminescence, single point; FAD-linked sulfhydryl oxidase ALR (Homo sapiens), P55789; purified ALR, DTT oxidation; inhibition, % (no concentration beside the values); 290,000 compounds, 3.8% hits; AID 485317, 2010;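 active means mean and each replicate at 75% or more; inconclusive means only one of the two met; inactive means neither met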;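 further: stock transfer was 7.5 nL into about 7.5 µL; 0% = neutral wells and 100% = wells with inactivated enzyme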
Target sequence (P55789 whole entry, looked up): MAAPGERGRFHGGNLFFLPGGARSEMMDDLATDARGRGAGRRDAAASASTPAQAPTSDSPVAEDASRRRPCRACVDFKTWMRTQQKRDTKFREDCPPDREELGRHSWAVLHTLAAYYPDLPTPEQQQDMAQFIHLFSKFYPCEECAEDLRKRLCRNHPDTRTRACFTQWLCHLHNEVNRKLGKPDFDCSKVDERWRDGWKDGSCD
Calb FLC: C. albicans growth inhibition with fluconazole, primary screen, CaCi-2 strain, Alamar Blue fluorescence; 300,000 compounds, 0.57% hits; C. albicans CaCi-2 (fluconazole-resistant clinical isolate) + fluconazole, 48 h; AID 1979, 2009; growth inhibition, % (test concentration not listed);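 active means most replicates above 75%; inconclusive means exactly half above 75%; inactive means most below 75%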;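 further: all wells also contain fluconazole at 8 µg/ml as a sub-toxic cotreatment; 0% = median of DMSO wells and 100% = median of geldanamycin control wells; wells of about 8 µL received 7.5 nL stock; the first replicate is given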
Ecoli rRNA inh OD600: further read-out of Ecoli rRNA inh, marked with its call; OD600 change, %; measured here: OD600 growth;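 optical density of the mix in the first replicate; 0 = DMSO median and -100 = no signal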
Ecoli rRNA inh RFP: further read-out of Ecoli rRNA inh, marked with its call; RFP signal change, %; measured here: RFP humanized mutant strains;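 first replicate; 0 = DMSO median and -100 = no signal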
Starred values were filed as active, the others as inactive; ? = inconclusive; nt = no result given.

SMILES | Bfl-1 A1 inh | Beta apoptosis | B2AR ag | T cruzi inh | Ecoli rRNA inh | Ecoli rRNA inh OD600 | Ecoli rRNA inh RFP | LANA-H2B inh | ALR H2O2 inh | Calb FLC
CCOc1ccc(NS(=O)(=O)c2ccc(C(=O)NCCCN3CCCC3=O)cc2)cc1 | 0.5 | 0 | 3 | -4 | 0 | -9 | -1.2 | 0.0 | 1 | 13
NC(=O)C1CCN(c2nc(-c3ccccc3N)cs2)CC1 | 0.5 | 1 | 9 | nt | nt | nt | nt | -0.7 | 21 | nt
CSCC[C@@H](C(=O)NCCCCCCCCCCC(=O)N1CCNCC1)n1cc(CCO)nn1 | -0.1 | -4 | -5 | nt | 1 | 11 | -0.7 | -1.7 | -27 | nt
Cc1snnc1C(=O)NC(=S)Nc1ccccc1 | 2.5 | -9 | 6 | -3 | -8 | 3 | 2.6 | -2.2 | 92* | 7
CCC(c1nnc(SCC(=O)Nc2ccc(N3CCOCC3)cc2)n1Cc1ccccc1)N(C)C (configuration not stated) | 0.0 | nt | 7 | -2 | 8 | 1 | 0.3 | 2.1 | 98* | -3
CCc1cc(Cn2nc(-c3ccccc3)cc2C(=O)NCC2CC2)on1 | 1.1 | -4 | -13 | 3 | -4 | -8 | 1.3 | -2.1 | 6 | 0
COCCn1c(C)cc(C(=O)COc2cccnc2[N+](=O)[O-])c1C | 0.7 | 0 | 0 | 6 | 13 | 6 | 1.4 | -6.4 | -6 | 25
CCc1cccc(CC)c1NC(=S)N1CCn2cccc2C1c1cccnc1 (configuration not stated) | 0.7 | -9 | -1 | 48 | nt | nt | nt | 0.7 | 10 | -5
COc1cccc(Sc2ccccc2/C=N/NC(N)=O)c1 | 0.0 | 7 | -3 | -47 | 11 | 26 | 5.8 | -1.2 | 1 | -9
Cc1cc(=O)[nH]c(N/N=C/c2ccc([N+](=O)[O-])cc2)n1 | -0.7 | 7 | nt | 1 | nt | nt | nt | 4.4 | -1 | 16
Cc1ccc(S(=O)(=O)N2CCCOC2CNC(=O)C(=O)NCc2ccco2)cc1 (configuration not stated) | -0.5 | 1 | -8 | -6 | nt | nt | nt | 4.1 | -32 | 0
O=C(C1CCN(Cc2nc(Cc3cccc(F)c3)no2)CC1)N1CCOCC1 | 0.1 | 2 | -4 | -5 | 16 | 1 | 0.5 | 3.9 | 3 | 4

Structures shown so far with an aryl thioether with sulfur outside any ring (2):
SMILES | Bfl-1 A1 inh | Beta apoptosis | B2AR ag | T cruzi inh | Ecoli rRNA inh | Ecoli rRNA inh OD600 | Ecoli rRNA inh RFP | LANA-H2B inh | ALR H2O2 inh | Calb FLC
CCC(c1nnc(SCC(=O)Nc2ccc(N3CCOCC3)cc2)n1Cc1ccccc1)N(C)C (configuration not stated) | 0.0 | nt | 7 | -2 | 8 | 1 | 0.3 | 2.1 | 98* | -3
COc1cccc(Sc2ccccc2/C=N/NC(N)=O)c1 | 0.0 | 7 | -3 | -47 | 11 | 26 | 5.8 | -1.2 | 1 | -9

Following part:
SMILES | Bfl-1 A1 inh | Beta apoptosis | B2AR ag | T cruzi inh | Ecoli rRNA inh | Ecoli rRNA inh OD600 | Ecoli rRNA inh RFP | LANA-H2B inh | ALR H2O2 inh | Calb FLC
CC(=O)N1CCc2ccc(S(=O)(=O)N3CCc4ccccc43)cc21 | -0.3 | 19 | 0 | 17 | 15 | 8 | -0.3 | -2.1 | -1 | 35
COc1ccccc1NC(=O)CN1C(=O)COc2ccc(S(=O)(=O)N3CCOCC3)cc21 | 0.3 | 1 | 0 | 1 | 15 | 14 | 2.9 | -1.0 | -2 | -6
COc1ccc(S(=O)(=O)NC(C)C(=O)NCc2ccncc2)cc1OC (configuration not stated) | 0.6 | -1 | -5 | -4 | 3 | 7 | -1.4 | -2.2 | -3 | -5
N[C@@H](CO)c1nnc([C@H](Cc2ccc(O)cc2)NC(=O)C2CCNCC2)o1 | -0.2 | -4 | -4 | -7 | 8 | 19 | -7.4 | 0.6 | -1 | -11
NC(=O)NC(=O)CN1C(=O)NC(c2ccccc2)(c2ccccc2)C1=O | -0.4 | nt | -5 | -4 | -1 | 17 | -3.6 | 2.0 | -7 | 1
O=C(CNC(=O)c1ccco1)NCC(=O)OCc1cccc(Cl)c1 | -1.2 | 3 | 1 | -14 | nt | nt | nt | -2.6 | nt | 1
Cc1ccc(CN2CCSc3ccc(C(=O)NCc4cccnc4)cc32)cc1 | 0.1 | 4 | 1 | 33 | nt | nt | nt | 0.0 | 45 | -10
Cc1cc(C(=O)Nc2sc3c(c2C#N)CCC(C)C3)no1 (configuration not stated) | -3.2 | 4 | -14 | 5 | nt | nt | nt | -0.3 | -4 | -1
COc1ccc(CNS(=O)(=O)c2ccc(S(=O)(=O)NC3CC3)cc2)cc1 | -0.4 | -6 | -3 | 6 | 2 | 9 | -0.5 | -0.9 | -2 | 8
COc1c(C)cc(C(=O)C2CCCN(C(=O)CCc3scnc3C)C2)cc1C (configuration not stated) | ? | 2 | -6 | -1 | -12 | -18 | -0.5 | 0.3 | -5 | 0
CCOC(=O)N1CCN(C(=O)CSc2nnc(-c3ccc(C)c(C)c3)o2)CC1 | 0.8 | 1 | 1 | 7 | 2 | 7 | -2.1 | 1.3 | nt | -3
O=C(NCc1cccc(Cl)c1)c1ccc(CS(=O)Cc2ccc(Cl)cc2)o1 (configuration not stated) | -0.5 | 3 | -1 | -9 | -45 | -50 | -1.3 | -2.7 | -2 | 2
O=C(CCC(=O)OCc1cccc([N+](=O)[O-])c1)Nc1ccc(F)cc1 | 0.9 | -3 | -2 | -1 | -3 | 3 | -0.9 | 0.8 | -13 | 36
COCCN(C(=O)CSc1nnc(-c2ccccc2F)o1)c1c(N)n(CC(C)C)c(=O)[nH]c1=O | 0.5 | 1 | 1 | -3 | 3 | 8 | -0.5 | -2.7 | 4 | -2
CC1=NN(C(N)=S)C(=O)C1N=Nc1ccccc1Cl (configuration not stated) | -7.1 | 13 | -6 | 11 | 0 | 9 | -0.8 | -2.8 | nt | 13
COc1ccc(-c2cc(=O)c(C(=O)c3ccc(C)cc3)n[nH]2)cc1 | -0.8 | -2 | 5 | 0 | 6 | 12 | -6.2 | 12 | -4 | 37
CCn1c(SCC(=O)NC(=O)NCc2ccco2)nc2sc(C)c(C)c2c1=O | -1.0 | -3 | -2 | 14 | nt | nt | nt | 0.1 | ? | 29
COc1ccc(C(=O)Oc2cc(/C=N/NS(=O)(=O)c3ccccc3)ccc2OC)cc1 | 0.7 | -1 | 9 | nt | nt | nt | nt | -4.0 | 0 | -12
Cc1cccc2cc(COC(=O)COc3ccccc3)c(=O)[nH]c12 | 2.2 | 2 | -3 | -35 | nt | nt | nt | -3.1 | 2 | -2
CN(CC(=O)Nc1cccc(Cl)c1)S(=O)(=O)c1ccc2[nH]c(=O)oc2c1 | 0.7 | 1 | 11 | -3 | -25* | -18* | -4.4* | 3.0 | -7 | -1
Cc1ccc(-c2[nH]nc3c2C(c2cccnc2)C(C#N)=C(N)O3)cc1 (configuration not stated) | -0.3 | -5 | 16 | -5 | nt | nt | nt | 1.9 | 20 | 13
CCCN1C(=O)c2cc(C(=O)NCc3ccc(OC)cc3)ccc2C1O (configuration not stated) | -0.1 | nt | 6 | -9 | 11 | 8 | 2.7 | 1.5 | 7 | 0
CCN1CCN(S(=O)(=O)c2ccc(Cl)c(C(=O)NCCc3ccccc3)c2)CC1 | -0.6 | 0 | 5 | 18 | 7 | 12 | 2.1 | 3.5 | -2 | nt
CC(Sc1ccccc1)C(=O)NNC(=O)c1ccncc1 (configuration not stated) | 0.0 | -10 | 15 | -15 | 6 | 3 | -1.2 | 2.0 | nt | -1
Cc1ccc(NS(=O)(=O)c2ccc3c(c2)OCCCO3)cc1S(=O)(=O)N1CCOCC1 | 1.7 | -2 | 4 | nt | -4 | -16 | 5.0 | -25 | nt | nt
O=C(CNC(=O)c1ccccc1F)Nc1ccccc1C(F)(F)F | 0.8 | -2 | -2 | -5 | 2 | 0 | -5.4 | -22 | 1 | -17
Cc1cc(C)cc(NC(=O)COc2ccc(C(=S)N3CCOCC3)cc2)c1 | 0.6 | -3 | -2 | 1 | 12 | 17 | 1.7 | -14 | -20 | 3
COc1cccc(N2CC(C(=O)Oc3ccc4ccccc4c3)CC2=O)c1 (configuration not stated) | 0.7 | -2 | 1 | 0 | 6 | -25 | 1.8 | -2.4 | -84 | 11
CC(=O)NC(CC(=O)NCC(c1ccco1)N(C)C)c1ccccc1 (configuration not stated) | -0.4 | -6 | 32 | -9 | nt | nt | nt | -3.6 | -18 | 8
CCNC(=O)NC(=O)C(C)Sc1nc2cc(C(=O)OC)ccc2c(=O)n1-c1ccccc1 (configuration not stated) | -0.7 | 2 | -24 | -7 | nt | nt | nt | 1.7 | 4 | -5
Cc1c(Cc2ccccc2)c(=O)oc2cc(OCC(=O)N3CCC(C(N)=O)CC3)ccc12 | -0.2 | -8 | 0 | -5 | nt | nt | nt | 3.4 | 24 | 5
CCCC(=O)Nc1c(-c2cccs2)c(=O)c2ccccc2n1C | 0.0 | -4 | 4 | 1 | nt | nt | nt | -2.7 | -2 | 9
O=C(OCC(=O)N1CCc2ccccc21)c1nc(Cl)ccc1Cl | -0.7 | 1 | -7 | -7 | -19 | -24 | -3.8 | -1.0 | -8 | 12
O=C(c1ccc2c(c1)OCO2)N(CC1CCCO1)C1(C(=O)NC2CCCC2)CCCCC1 (configuration not stated) | -0.4 | -5 | 2 | 2 | nt | nt | nt | 2.1 | 3 | -6
CCOC(=O)C1(CCOc2ccccc2)CCN(Cc2cnc(C)[nH]2)CC1 | -0.2 | 0 | 9 | 22 | 11 | 4 | 3.0 | 0.1 | -19 | -18
O=C(Nc1cccc(-c2nnco2)c1)c1cccs1 | -0.1 | 7 | -7 | nt | 15 | 7 | 4.9 | 0.9 | -2 | -12
CC(O)CCC(=O)NNC1=CC(=O)CC(C)(C)C1 (configuration not stated) | -0.4 | -1 | nt | -7 | nt | nt | nt | 3.4 | 14 | -8
c1ccc2c(c1)nc(NCCN1CCOCC1)c1nncn12 | 0.3 | 0 | -12 | -4 | 13 | 5 | -2.1 | 2.1 | 4 | -5
Cc1cc(C(=O)OCC(=O)Nc2cc(Cl)ccc2C)c(C)o1 | -2.6 | -6 | 7 | nt | 5 | 5 | 1.6 | 2.4 | 0 | nt

A portion of the library, so the mix of outcomes need not match the whole.
